gsp ag – activates gsp, the McCune-Albright syndrome mutation. gsp mutant cells, cAMP HTRF, 30 min; control for the full effect not named in the record. Potency, µM (series often up to 76.9 µM), for the others: top-dose activation (cAMP increase), hits mostly activators. hit rate 0.13% among 340,000. AID 624287; active = well fitted activation curve with a large enough effect; inconclusive = small, poorly fitted or top-dose-only effect, or another doubt; inactive = no such curve, though single readings can be large or run the other way; cell line not stated here;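 further: phosphodiesterase inhibitor Ro 20-1724 added with compounds to block cAMP breakdown; potency means the concentration at half of the fitted maximal effect; nearly all actives have a fitted effect of over 60% in size; about a fifth of the inactives were tested at one dose only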
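Cells in DMEM/10% FBS with G418 were pretreated with compounds in DMSO plus […] (300 uM stock) for 30 min at 37C. cAMP was measured by HTRF (cAMP-d2 plus anti-cAMP antibody-K) after 30 min at room temperature.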
ClpP mod – qHTS Assay for Activators of ClpP; purified B. subtilis ClpP, FRET peptide cleavage, 20 min; Potency, µM (top dose mostly 57.5 µM), for the others: at the highest dose activity change, negative = active; hit rate 1.9% among 340,000; active = well fitted falling curve with a large enough effect; inconclusive = small, poorly fitted or top-dose-only effect; inactive = no such curve, though single readings can be large or run the other way; further: potency means the concentration at half of the fitted maximal effect; the source files actives as falling curves though it sought activators and does not explain the sign; nearly all actives have a fitted effect of over 65% in size; many hits overshoot -100%
Target sequence (P80244 whole entry, looked up): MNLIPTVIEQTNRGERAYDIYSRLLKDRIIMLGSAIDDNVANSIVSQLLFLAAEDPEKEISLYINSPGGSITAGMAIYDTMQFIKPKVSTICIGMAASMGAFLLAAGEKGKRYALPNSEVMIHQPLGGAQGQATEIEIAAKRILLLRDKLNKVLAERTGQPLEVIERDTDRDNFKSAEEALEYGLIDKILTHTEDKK
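ClpP 10 microg/mL final, pH 8 Tris/KCl buffer with BSA, glycerol, Tween-20; compound pinned in; FRET-FV substrate; RT 20 min; Ex320/Em430; ΔFRET vs ADEP 5.8 microM, DMSO, no enzyme.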
gsp antagonist – antagonizes gsp, the McCune-Albright syndrome mutation; Potency, µM (highest dose often 76.9 µM), for inactives: at the highest dose activity change, negative = inhibition, actives largely listed as inhibitors; gsp-mutant cells, cAMP HTRF, 30 min; control for the full effect not named in the record; hit rate 0.4% among 340,000; active = falling curve of any shape with a large fitted effect; inconclusive = falling curve, mostly with a smaller effect; inactive = flat or rising curve; cell line not stated here;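 further: intracellular cAMP measured with PDE inhibitor Ro 20-1724 present during compound exposure; potency means the concentration at half of the fitted maximal effect; on the % scale 0 is the no-effect control and ±100 the full control effect; nearly all actives have a fitted effect of over 65% in size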
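Cells, 2000/well, grown 16–24 h in DMEM 10% FBS with 0.5 mg/ml G418, then compounds plus […] (300 uM addition stock), 30 min at 37C. cAMP read by HTRF (cAMP-d2 and anti-cAMP antibody-K in lysis buffer) after 30 min RT.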
Sfp inh – blocks B. subtilis Sfp PPTase activity; AID 1490; Potency, µM, without a hit: max response, negative = inhibition, actives largely listed as inhibitors; hit rate 3.5% among 310,000; Biochemical Sfp PPTase activity, qHTS; Q9F4F7; active means well fitted inhibition curve with a large enough effect; inconclusive means small, poorly fitted or top-dose-only effect, or another doubt; inactive means no such curve, though single readings can be large or run the other way;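 further: the enzyme is Sfp with the accession as filed and its product quenches rhodamine fluorescence; potency means the concentration at half of the fitted maximal effect; 0% = enzyme reaction without inhibitor and -100% = no enzyme wells; top concentration of the series not given in the record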
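After 15 min at room temperature with compound, 15 nM Sfp received 5 uM rhodamine-CoA plus 12.5 uM BHQ-2-ybbR (50 mM Hepes pH 7.6, 10 mM MgCl2). Rate came from the fluorescence difference over 30 min, ex 525/em 598 nm.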
D2 agonist – human D2 receptor agonism in beta-arrestin assay. DiscoveRx PathHunter D2 beta-arrestin, luminescence, 90 min; 100% = 57 uM dopamine signal. activation, % (concentration not given with the values). hit rate 0.084% among 360,000. AID 624465; in the data active = activation above about 40%; inconclusive = about 15% to 40%; inactive = below about 15%; further: compound concentration not given in the record; the text of the record calls up to 30% inactive
Target sequence (P14416 whole entry, looked up): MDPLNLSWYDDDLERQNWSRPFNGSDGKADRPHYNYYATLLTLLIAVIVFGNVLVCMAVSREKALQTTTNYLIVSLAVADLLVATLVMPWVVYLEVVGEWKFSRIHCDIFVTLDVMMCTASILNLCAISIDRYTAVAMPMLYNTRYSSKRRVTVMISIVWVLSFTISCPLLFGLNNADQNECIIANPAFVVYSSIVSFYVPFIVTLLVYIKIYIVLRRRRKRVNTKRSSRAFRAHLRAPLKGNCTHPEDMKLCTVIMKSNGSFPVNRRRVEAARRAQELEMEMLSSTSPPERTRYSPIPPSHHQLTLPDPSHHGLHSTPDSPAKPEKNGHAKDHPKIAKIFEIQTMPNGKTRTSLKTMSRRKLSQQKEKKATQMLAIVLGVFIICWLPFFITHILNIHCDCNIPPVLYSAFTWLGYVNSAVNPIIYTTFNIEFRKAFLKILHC
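DiscoveRx PathHunter D2 beta-arrestin cells (2,100/well) attached overnight, then compound-stimulated 90 min at 37 C in HBSS/10 mM HEPES/0.1% Tween-20 buffer; beta-galactosidase complementation read by luminescence after 1 h at ambient temperature. Dopamine 57 uM final (EC100) as control.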
Menin-MLL FL inh – menin-MLL binding inhibition, fluorescein peptide | Fluorescence polarization, fluorescein-MLL peptide displacement from menin | FP activity change, % at 61.4 µM | 290,000 tested, under 10 active | AID 1766; inconclusive = falling polarisation curve, or a change in total fluorescence; inactive = total fluorescence flat and polarisation flat or rising; no compound was filed as active; the % refers to the polarisation; negative = inhibition;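 further: % of control where 0% means no effect; inhibitors lower the polarisation; unlabelled MLL peptide was the positive control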
PINK1 modulator – PINK1 expression modulation; PINK1 immunofluorescence, high-content cytometry, 24 h; Potency, µM (series often up to 76.6 µM), inactives show at the highest dose activation (PINK1 increase), usual class: activators; hit rate 0.2% among 410,000; AID 624263; active = well fitted activation curve with a large enough effect; inconclusive = small, poorly fitted or top-dose-only effect; inactive = flat fitted curve, though single readings scatter; cell line not stated here;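 further: potency means the concentration at half of the fitted maximal effect; % of control where 0% means no effect; nearly all actives have a fitted effect of over 65% in size; a mitochondrial uncoupler was the plate control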
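Stable cell line, 250 cells/well, 12 h attachment; compounds pinned at 5 concentrations, 24 h; CCCP control. Fixed with nuclear dye, primary antibodies 12 h at 10 degrees C, secondary plus cell stain; laser-scanning cytometer read.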
The depositor's hits bear a star; u = inconclusive; x = no result given; & = joins results of further samples; [ ] = dose if it differs, or a comment. This is a random part of the collection. Share with any hit: about 5.1%.

SMILES | gsp ag | ClpP mod | gsp antagonist | Sfp inh | D2 agonist | Menin-MLL FL inh | PINK1 modulator
COCCN(C(=O)c1cccc(-n2cnnn2)c1)c1c(N)n(CC(C)C)c(=O)[nH]c1=O | 27% | -13% | 15% | x | 1.4 | x | -5.6%
Cc1cc(C)cc(NC(=S)NCCc2c[nH]c3ccccc23)c1 | -6% | -0.8% | -22% | -4% | 2.2 | -2.1 | -0.7%
CN(C)c1ccc(C2N(C)C(=O)c3ccccc3N2C)cc1 (stereo not drawn) | -3% | x | -14% | 7% | 3.4 | -1.3 | 0.7%
Cc1nc2ccccc2c(=O)n1NC(=O)c1cccc([N+](=O)[O-])c1 | 11%[15.4 µM] | x | 9% | 15% | -0.6 | 4.0 | -0.9%
NCc1ccc(S(N)(=O)=O)cc1 | x | -0.3%&1.1% | 3%&-1% | 3%&13%&19% | 3.2&-9.4 | 0.3 | 0.8%&0.0%
O=C(NCC1COc2ccccc2O1)C1(c2ccccc2)CCCC1 (stereo not drawn) | -12% | x | -10% | 11% | -0.5 | -0.8 | -0.2%
CCc1cc2c(=O)c(-c3nc4ccccc4n3C)c(C)oc2c(CN2CCN(CCO)CC2)c1O | -20% | -22% | -4% | 7% | -1.1 | 10 | 1.4%[38.3 µM]
CCCCn1nc2cc(C(=O)NC3CCCc4ccccc43)ccc2c1OCC (stereo not drawn) | x | 3.2% | -3% | 8% | 0.4 | 1.4 | 1.3%
Cc1nn(-c2ccc(N3CCCCC3)nn2)c(C)c1CCC(=O)Nc1cc(F)ccc1F | -35%[inhibitor] | -0.4% | -5% | 10% | -5.9 | -0.8 | 0.3%
O=C(NCc1ccc(F)cc1)C(c1ccccc1)N(C(=O)c1csnn1)C1CC1 (stereo not drawn) | u | x | 16% | -2% | 7.4 | 1.8 | -2.2%
Cc1ccc(F)cc1C(=O)N1CCC1(C)C(=O)O (stereo not drawn) | x | 0.4% | x | x | -4.4 | x | 0.3%
Cn1c(=O)c2[nH]c(CCCCCCCc3nc4ccccc4[nH]3)nc2n(C)c1=O | -1%[15.4 µM] | -0.6% | 1% | x | 0.3 | x | 3.0%
CCCn1c(N)c(N(CCOC)C(=O)c2ccc(-c3ccc(Cl)cc3)o2)c(=O)[nH]c1=O | 7% | -7.0% | 10% | x | 0.9 | x | 2.8%
CCCCOc1c(Cl)cc(CNC(C)(C)CO)cc1OCC | -29% | -1.5% | 9% | 15% | -0.2 | -0.9 | -0.4%[38.3 µM]
COc1cc(/C(C)=N/NC(=O)c2nnn(-c3nonc3N)c2-c2cccs2)ccc1O | u | -8.2% | -8% | 14% | -5.6 | x | 2.5%
CCOC(=O)C1(Cc2cccc(OC)c2)CCCN(Cc2cc(C(C)C)n[nH]2)C1 (stereo not drawn) | -4%[15.4 µM] | x | 0% | 2% | 0.7 | 10 | 0.4%
Cc1ccccc1OCC(=O)OCC(=O)Nc1ncc(Cl)c(C)c1Cl | -27% | -2.6% | 7% | x | -4.0 | x | 2.5%
N#Cc1cnn(-c2cccc(Cl)c2)c1N | 19% | 0.2% | 17% | 18% | -4.0 | 1.8 | 1.0%
Cc1cccc(-n2c(Cc3cc(=O)[nH]c(=O)[nH]3)nnc2SCC(=O)NCc2ccco2)c1 | -17% | -0.5% | 22% | x | -4.1 | x | -3.6%
Cc1ccc(OCc2cc(C(=O)N3CCCC(O)C3)no2)cn1 (stereo not drawn) | 13% | -5.3% | 6% | 10% | 10.0 | x | 0.6%
c1ccc2oc(C3=NNC(=NC4CC4)SC3)cc2c1 | -17% | -7.6% | -21% | -40% | -18 | 4.7 | -1.8%
Cn1cccc1CNCc1ccc(F)cc1 | 18%[15.4 µM] | 0.6% | 5% | 10% | -3.7 | 0.9 | u
O=C1CC(/C=C/c2ccccc2)=Nc2ccccc2N1 | -2% | 0.0% | -12% | 13% | 1.7 | -0.2 | 4.6%
O=C(/C=C/c1cccs1)N1CCN(c2ccc(F)cc2)CC1 | -12%[15.4 µM] | -0.1% | -22% | 7% | 1.3 | 0.6 | -1.0%
O=C(COc1ccccc1-c1ccccc1)N/N=C/c1ccncc1 | -36%[15.4 µM] | x | x | -13% | 2.7 | 1.5 | 2.5%

(list continues)
SMILES | gsp ag | ClpP mod | gsp antagonist | Sfp inh | D2 agonist | Menin-MLL FL inh | PINK1 modulator
O=C(Cc1ccccc1F)OCN1C(=O)c2ccccc2C1=O | -8% | 0.2% | 3% | 11% | 6.9 | x | -0.6%
O=C(COC(=O)/C=C/c1cccc(C(F)(F)F)c1)NCc1ccccc1 | -44%[inhibitor] | 0.5% | 13% | -6% | -3.9 | 4.6 | 10%
CCCS(=O)(=O)c1ccc(COC(=O)c2ccc(NC(C)=O)cc2)cc1 | 1%[15.4 µM] | x | x | 14% | -2.5 | 1.1 | 0.4%
COc1ccc(C)cc1NC(=O)CCCN1C(=O)NC(C)(C)C1=O | 7% | -1.3% | 11% | x | -3.0 | x | -1.6%
CC(=O)c1ccc(NC(=O)N[C@@H](CC(C)C)C(=O)O)cc1 | -20% | 0.5% | 5% | 23% | -4.7 | 5.0 | 1.2%
O=C(O)c1nccnc1C(=O)NCc1csc2ccc(Cl)cc12 | -49%[inhibitor] | 1.1% | 8% | 20% | -3.8 | 2.9 | 1.2%
O=C(NCc1ccc2c(c1)OCO2)c1ccc(CS(=O)Cc2cccc(Cl)c2)o1 (stereo not drawn) | 0% | -19% | -6% | 5% | -8.4 | -0.2 | -1.0%
O=C(c1cc2ccccc2oc1=O)N1CCN(c2ccccn2)CC1 | 0% | -0.9% | 10% | 20% | -2.6 | -0.6 | -0.3%
Clc1ccc2c(c1)-c1[nH]ncc1CS2 | -17%[15.4 µM] | x | 3% | -6% | -2.4 | -1.0 | 5.5%
O=c1c(O)c(-c2ccccc2)oc2ccccc12 | x | -7.4% | -10% | 2% | -3.3 | u | 1.7%&1.1%
CN1CCN(C(=O)CCN2C(=O)/C(=C\c3ccccc3F)SC2=S)CC1 | 14% | 3.1% | 3% | 4% | -1.5 | -0.5 | 1.7%
CCCc1cc(=O)oc2c3c(cc(OCC(=O)N[C@@H](C)C(=O)O)c12)OC(C)(C)CC3 | 4%[15.4 µM] | 0.4% | -22% | 5% | -4.5 | -11 | 0.8%
C=CCn1c(=S)[nH]c2nc3c(cc2c1=O)CCCC3 | 5% | -4.3% | 12% | 4% | 0.4 | 3.0 | -4.9%[38.3 µM]
Cc1ccc(-c2cc(Cc3ccccn3)c(=O)[nH]n2)cc1 | -6%[15.4 µM] | x | -2% | 1% | -0.4 | 4.9 | 10%
COc1ccc2c(c1)OC1(O)COc3cc(OC)c(OC)cc3C1=C2 (stereo not drawn) | x | x | x | -4% | x | 1.8 | -0.9%
CC(=O)NN1C(=O)c2ccccc2NC1c1ccco1 (stereo not drawn) | -56% | 4.0% | 10% | 31%[activator] | -19 | 0.7 | -1.5%
COc1ccc(S(=O)(=O)Nc2ccc(-c3ccc4nncn4n3)cc2)c(OC)c1 | -5%[15.4 µM] | -1.5% | -1% | x | 0.0 | x | -0.8%
C[C@H](CO)N1C[C@H](C)[C@@H](CN(C)C(=O)c2ccccc2)OCc2cn(nn2)CCCC1=O | -40%[inhibitor] | 0.3% | x | x | -8.4 | x | 1.6%
Cc1cc(NC(=O)c2ccccc2C)no1 | -9%[15.4 µM] | -18% | 2% | 2% | 4.1 | 4.1 | 0.4%
COC(=O)c1sc2ccccc2c1-n1cccc1C(=O)C(=O)Nc1ccccc1 | 0% | u | -22% | 14% | -4.7 | 3.9 | 8.9%
Cc1ccc(/C=C/C(=O)O)cc1S(=O)(=O)N(CCO)CCO | -1% | 0.9% | -3% | 4% | -4.8 | -0.5 | 0.2%
COC(=O)C(CC(=O)c1ccc(C)cc1)n1cccn1 (stereo not drawn) | -14% | -1.6% | -4% | 22% | 2.4 | 1.9 | 0.1%
COc1ccc(/C(O)=C(\C#N)c2nc3ccccc3n2C)cc1OC | 23% | 0.7% | 15% | 11% | -0.7 | -1.5 | 6.7%[38.3 µM]
CCOc1ccc(CNC2CCCCCCC2)cc1OC | 8% | -0.8% | 7% | 11% | -2.5 | -3.7 | 1.0%
CCN(CC(=O)Nc1c(F)cccc1F)C(=O)c1ccc(S(=O)(=O)N2CCCCC2)cc1 | -32%[inhibitor] | -2.1% | 0% | x | -1.7 | x | -0.8%

(listing goes on)
SMILES | gsp ag | ClpP mod | gsp antagonist | Sfp inh | D2 agonist | Menin-MLL FL inh | PINK1 modulator
O=C(NCCSc1c[nH]c2ccccc12)c1ccc(Br)o1 | -24% | 2.6% | -2% | 10% | -3.8 | 1.5 | -0.8%
O=C(C1CCCN(CCCc2ccccc2)C1)N1CCCCCC1 (stereo not drawn) | -13% | u | 14% | -15% | -2.3 | 1.6 | 1.1%
CN(CC(=O)NNC(=O)CCNS(=O)(=O)c1ccccc1)S(=O)(=O)c1ccc(Cl)cc1 | 25% | 256% | 7% | x | 0.2 | x | -0.7%
COc1ccc(CNC(=O)C(C)Cc2ccccc2)cc1O (stereo not drawn) | x | -0.6% | 4% | -3%&11% | -2.8 | -0.3&-1.9 | -0.6%
NC(=O)c1ccc(NC(=O)COC(=O)C2CC3C=CC2C3)cc1 (stereo not drawn) | 3%[15.4 µM] | -1.6% | 5% | x | -0.3 | x | -0.8%
CCOCCCNC(=O)C(NC(=O)c1ccc(NC(C)=O)cc1)c1ccc(C)cc1 (stereo not drawn) | -7%[15.4 µM] | -4.4% | 0% | 0% | 1.4 | -3.5 | -2.8%
CC1(C)C=Cc2c(c3c(c4c(=O)c(-c5ccc(O)cc5)coc24)OC(C)(C)CC3)O1 | x | -14% | u | -22% | -2.7 | -4.9 | -1.3%
COC(=O)[C@H](CCSC)NC(=O)Cn1cnc2c(SC)nc(N)nc21 | x | -0.1% | 2% | x | -3.8 | x | 1.4%
CC(=O)Nc1cccc(NC(=O)CCn2c(=O)sc3ccccc32)c1 | -11% | -1.1% | -5% | -2% | -1.4 | 0.7 | -0.8%
Cc1ccc(-c2csc3nc4ccc(C(=O)NCCO)cc4c(=O)n23)cc1 | x | 3.9% | -12% | -1% | -0.3 | u | 5.5%
